High-throughput results from PubChem BioAssay.
RanGTP-Impb inh: inhibitors of RanGTP-importin-beta interaction, primary screen, biochemical, FRET, CFP-Ran, YFP-importin-beta, homogeneous; 300,000 compounds, 1.1% hits; AID 2216, 2009; inhibition, % (concentration not given with the values); Ran GTPase (GTP-bound) - importin-beta complex; cell-free CFP-Ran/YFP-importin-beta FRET ratio;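 active means most replicates above 15%; inconclusive means exactly half above 15%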;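 further: 0% = DMSO wells and 100% = Ran loaded with GDP instead of GTP; wells of about 40 µL received 100 nL stock; the first replicate is given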
UCH37 inh: inhibitors of human UCH37 deubiquitinase, primary screen, biochemical, Ub-AMC cleavage, fluorescence | 330,000 compounds, 0.33% hits | AID 588478, 2011 | inhibition, % (test concentration not listed) | purified proteasome/UCH37;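 active means mean of two replicates above 20%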;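 further: 0% = compound-free wells with enzyme and 100% = wells lacking proteasome; stock transfer was 100 nL into about 20 µL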
Target sequence (Q9Y5K5 whole entry, looked up): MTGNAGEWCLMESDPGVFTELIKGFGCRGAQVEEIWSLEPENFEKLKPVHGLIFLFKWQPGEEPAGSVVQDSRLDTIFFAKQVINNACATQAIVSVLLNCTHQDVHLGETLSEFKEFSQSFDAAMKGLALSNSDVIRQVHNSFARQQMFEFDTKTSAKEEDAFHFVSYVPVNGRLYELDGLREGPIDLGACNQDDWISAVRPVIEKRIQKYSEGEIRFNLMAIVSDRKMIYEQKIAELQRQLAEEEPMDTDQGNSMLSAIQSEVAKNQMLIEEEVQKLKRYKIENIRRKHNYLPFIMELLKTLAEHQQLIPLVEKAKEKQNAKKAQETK
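Material: human UCH37 enzyme supplied as purified proteasome complex. Measure: % inhibition of Ub-AMC cleavage fluorescence. Medium: pH 7.4 Tris-HCl (50 mM) with ovalbumin, ATP-MgCl2, DTT. Times: 30 min preincubation with enzyme, 25 min cleavage at room temperature. Detection: AMC fluorescence intensity at 355/460 nm.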
Vif TR-FRET: inhibitors of Vif binding to APOBEC3G peptide, primary screen, biochemical, TR-FRET, GST-Vif 1-94, biotin-A3G peptide, dose response retest (AID 1117319) | inhibition, %; hits with a dose series show IC50 in µM | TR-FRET GST-Vif / biotin-A3G peptide binding; higher % means a stronger effect; test concentration not given here; strong numbers were not always called active | Virion infectivity factor (Human immunodeficiency virus type 1 group M subtype B (isolate … | 260,000 compounds, 0.57% hits;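 active means above the screen mean plus three standard deviations and confirmed in dose response; inconclusive means results disagree or hit not tested in dose response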;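 further: Vif residues 1-94 fused to GST binding biotinylated APOBEC3G peptide 110-148; 0% = full assay without inhibitor and 100% = GST in place of GST-Vif; retest series ran down from 100 µM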
MLL AF4-AF9 inh: inhibitors of AF4 peptide binding to AF9, primary screen, biochemical, AlphaScreen, biotin-AF4 peptide, FLAG-AF9, single point. inhibition, % at 10 µM. 350,000 compounds, 0.47% hits. Protein AF-9 (Homo sapiens), P42568;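 active means every replicate reaching a set inhibition limit, whatever the replicate mean, cut at about 25% in these data; inconclusive means mean inhibition reaches that limit but some replicates miss it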;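 further: 0% = plate neutral control median and 100% = total signal loss; the record names both 10 and 1 µM as test concentration; the first replicate is given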
Target sequence (P42568 whole entry, looked up): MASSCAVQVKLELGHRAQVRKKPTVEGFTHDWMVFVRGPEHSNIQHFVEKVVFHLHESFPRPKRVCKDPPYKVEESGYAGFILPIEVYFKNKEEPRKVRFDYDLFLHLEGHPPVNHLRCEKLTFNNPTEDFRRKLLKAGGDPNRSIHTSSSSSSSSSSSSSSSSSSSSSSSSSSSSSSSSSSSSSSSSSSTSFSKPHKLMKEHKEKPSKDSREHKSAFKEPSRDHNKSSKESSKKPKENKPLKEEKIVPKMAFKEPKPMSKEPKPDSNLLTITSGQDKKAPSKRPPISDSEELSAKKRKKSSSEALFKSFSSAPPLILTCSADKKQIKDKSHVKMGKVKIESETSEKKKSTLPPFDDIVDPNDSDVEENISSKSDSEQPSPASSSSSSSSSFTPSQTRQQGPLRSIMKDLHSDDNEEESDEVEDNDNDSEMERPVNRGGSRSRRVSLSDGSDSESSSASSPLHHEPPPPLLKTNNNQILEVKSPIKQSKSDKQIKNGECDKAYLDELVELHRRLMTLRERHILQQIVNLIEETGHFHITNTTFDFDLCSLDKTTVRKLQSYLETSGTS
E coli growth: E. coli growth inhibition, primary screen, OD600 | OD600 absorbance (test concentration not listed) | Escherichia coli growth, 23 h; stronger effect = lower value | 330,000 compounds, 0.21% hits;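 active means OD600 absorbance below the run mean of sample wells minus 3.6 SD, in any replicate, cut at about 0.56 in these data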;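 further: stock transfer was 300 nL into about 60 µL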
FGF22 binding: binders of human FGF22 protein, primary screen, FGF22 synaptogenesis inhibitor project, biophysical, thermal shift, single point; recombinant FGF22 thermal shift, SYPRO orange fluorescence; percent of sucrose octasulfate shift, DMSO zero; AID 651658, 2012; calls only at 9.99 µM; Fibroblast growth factor 22 (Homo sapiens), Q9HCT0; 340,000 compounds, 1.5% hits;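 active means melting point raised past a set limit in the mean and every replicate; inconclusive means no clear call; three in four hits are not shown here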
Target sequence (Q9HCT0 whole entry, looked up): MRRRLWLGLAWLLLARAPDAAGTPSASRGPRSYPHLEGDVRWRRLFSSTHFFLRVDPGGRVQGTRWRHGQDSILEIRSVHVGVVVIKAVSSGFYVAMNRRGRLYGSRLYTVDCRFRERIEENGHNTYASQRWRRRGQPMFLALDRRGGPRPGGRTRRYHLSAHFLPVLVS
HNF4A DNA FP: change in binding of human HNF4A to DNA, primary screen, biochemical, fluorescence polarization, FITC-DNA. 1 h. activity change, % at 10 µM. AID 1224865, 2016. 360,000 compounds, 0.3% hits; in the data active means activity change above about 30%, passing the limit was not always enough;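 further: controls were the assay level and a saturating level of protein; the project sought stronger binding though the title names inhibitors; some compounds called inactive have numbers as strong as hits; positive values seem to mean higher polarization but the record does not say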
Numbers without * were called inactive; & = joins results of further samples. This is a subset; the hit share may differ from the screen's.

How did Cc1ccccc1NS(=O)(=O)c1ccc(C(=O)NCC(c2ccco2)N(C)C)cc1 (centres undefined) do in these assays?
RanGTP-Impb inh: -6.6; MLL AF4-AF9 inh: -5.0; FGF22 binding: inactive; HNF4A DNA FP: 2.1

Results for CC1(C)CC(=O)c2c(nc(SCC(=O)Nc3nsc(-c4ccccc4)n3)c(C#N)c2-c2ccccc2)C1 ?
RanGTP-Impb inh: -0.3; UCH37 inh: -2.2; Vif TR-FRET: -2%; E coli growth: 0.71; HNF4A DNA FP: 1.2

Results for COc1ccc(NC(=O)CC(C)NCCCN2CCCC2=O)cc1 (centres undefined) ?
RanGTP-Impb inh: 1.4; UCH37 inh: 5.9; Vif TR-FRET: 3%; MLL AF4-AF9 inh: -2.1; E coli growth: 0.66; FGF22 binding: inactive; HNF4A DNA FP: -2.4

Results for CCOC(=O)c1cc(-c2ccccc2)sc1NC(=O)C(C)Sc1nnnn1C (centres undefined) ?
RanGTP-Impb inh: -23; UCH37 inh: 4.7; Vif TR-FRET: -4%; E coli growth: 0.71; HNF4A DNA FP: -1.6

How did O=C(c1ccccc1F)N(Cc1ccccc1)C1CCS(=O)(=O)C1 (centres undefined) do in these assays?
RanGTP-Impb inh: inconclusive; UCH37 inh: -0.4; Vif TR-FRET: -1%; E coli growth: 0.67; HNF4A DNA FP: 0.9

How did COc1ccc(N2C(=O)C(Cl)=C(Nc3ccccc3OC)C2=O)cc1 do in these assays?
RanGTP-Impb inh: -0.5; UCH37 inh: 4.2; Vif TR-FRET: 24%; E coli growth: 0.71; HNF4A DNA FP: -0.2

Results for CCC(C)C1Nc2ccc(C(=O)NCc3ccc4c(c3)OCO4)cc2NC1=O (centres undefined) ?
RanGTP-Impb inh: -0.6; UCH37 inh: 2.1; MLL AF4-AF9 inh: -3.7; E coli growth: 0.69; FGF22 binding: inactive; HNF4A DNA FP: 0.8

What do the screens show for `CCOc1ccc2nc(C)cc(C(=O)O)c2c1`?
RanGTP-Impb inh: 1.4; UCH37 inh: -331; Vif TR-FRET: 6%; MLL AF4-AF9 inh: -0.3; E coli growth: 0.72; FGF22 binding: inactive; HNF4A DNA FP: 1.6

What do the screens show for `O=C(Nc1cc(C(F)(F)F)ccc1N1CCOCC1)c1c(F)c(F)c(F)c(F)c1F`?
RanGTP-Impb inh: 0.3; UCH37 inh: 1.0; Vif TR-FRET: 0%; E coli growth: 0.68; HNF4A DNA FP: -1.0

What do the screens show for `O=C(C[C@H]1C/C=C\CC[C@@H](Cc2ccc(F)cc2)C(=O)O[C@H](c2ccccc2)CNC1=O)N[C@H](CO)Cc1ccccc1`?
UCH37 inh: 0.9; Vif TR-FRET: -9%; MLL AF4-AF9 inh: -6.2; E coli growth: 0.71; FGF22 binding: inactive; HNF4A DNA FP: -6.5

Results for CCc1ccc(C(C)NC(=S)NCc2ccc(F)cc2)cc1 (centres undefined) ?
RanGTP-Impb inh: -4.7; UCH37 inh: -0.6; MLL AF4-AF9 inh: -1.3; E coli growth: 0.7; FGF22 binding: inactive; HNF4A DNA FP: 1.4

What do the screens show for `Nc1c(-c2ccccc2)n[nH]c1-c1ccccc1`?
RanGTP-Impb inh: 1.7; UCH37 inh: -14; Vif TR-FRET: -3%; E coli growth: 0.69; HNF4A DNA FP: -0.8

Results for O=C(Nc1ccc(F)cc1Cl)c1ccc2c(=O)n3c(nc2c1)CCC3 ?
RanGTP-Impb inh: 4.6; UCH37 inh: -2.1; Vif TR-FRET: 3%; MLL AF4-AF9 inh: 3.7; E coli growth: 0.6; FGF22 binding: inactive; HNF4A DNA FP: 1.3

How did COc1ccc(CCNC(=O)c2cc3c(F)cccc3s2)cc1OC do in these assays?
RanGTP-Impb inh: 7.5; UCH37 inh: 1.0; MLL AF4-AF9 inh: -1.7; E coli growth: 0.67; FGF22 binding: inactive; HNF4A DNA FP: 3.4

What do the screens show for `Cc1cc(Cl)c(S(=O)(=O)NCc2cccnc2)cc1OCC(=O)NC1CCCCC1`?
RanGTP-Impb inh: 4.3; UCH37 inh: 6.5; Vif TR-FRET: 73%; E coli growth: 0.69; HNF4A DNA FP: 4.7

What do the screens show for `CCCN1CCN(CCCNC(=O)CCn2nc(-c3ccccc3)ccc2=O)CC1`?
RanGTP-Impb inh: 5.6; UCH37 inh: 4.9; MLL AF4-AF9 inh: -5.4; E coli growth: 0.72; FGF22 binding: inactive; HNF4A DNA FP: -1.9

What do the screens show for `Cc1noc(C)c1COC(=O)C1COc2ccccc2O1` (centres undefined)?
RanGTP-Impb inh: -3.6; UCH37 inh: 3.8; Vif TR-FRET: -2%; E coli growth: 0.7; HNF4A DNA FP: 0.3

How did Cc1ccc(CNS(=O)(=O)c2ccc3c(c2)CCN3C(=O)C2CCC2)cc1 do in these assays?
RanGTP-Impb inh: 1.9; UCH37 inh: 4.6; MLL AF4-AF9 inh: -8.6; E coli growth: 0.69; FGF22 binding: inactive; HNF4A DNA FP: 0.2

Results for COc1ccc(C)cc1NC(=O)COC(=O)Cc1ccc(-c2ccccc2)cc1 ?
RanGTP-Impb inh: 3.1; UCH37 inh: 1.1; E coli growth: 0.7; HNF4A DNA FP: -1.3

What do the screens show for `O=C(CNC(=O)N1CC(=O)Nc2ccccc21)NCCc1ccc(Cl)cc1`?
RanGTP-Impb inh: 1.4; UCH37 inh: 1.2; MLL AF4-AF9 inh: -32; E coli growth: 0.68; FGF22 binding: inactive; HNF4A DNA FP: -2.6

Some of these compounds in order of count of non-hydrogen atoms, rising:
What do the screens show for `Nc1c(-c2ccccc2)n[nH]c1-c1ccccc1`?
RanGTP-Impb inh: 1.7; UCH37 inh: -14; Vif TR-FRET: -3%; E coli growth: 0.69; HNF4A DNA FP: -0.8

Results for CCC(C)C1Nc2ccc(C(=O)NCc3ccc4c(c3)OCO4)cc2NC1=O (centres undefined) ?
RanGTP-Impb inh: -0.6; UCH37 inh: 2.1; MLL AF4-AF9 inh: -3.7; E coli growth: 0.69; FGF22 binding: inactive; HNF4A DNA FP: 0.8

What do the screens show for `O=C(C[C@H]1C/C=C\CC[C@@H](Cc2ccc(F)cc2)C(=O)O[C@H](c2ccccc2)CNC1=O)N[C@H](CO)Cc1ccccc1`?
UCH37 inh: 0.9; Vif TR-FRET: -9%; MLL AF4-AF9 inh: -6.2; E coli growth: 0.71; FGF22 binding: inactive; HNF4A DNA FP: -6.5

Continued:
What do the screens show for `COc1ccc(OC)c(S(=O)(=O)N2CCCC(C(=O)NCCc3ccccc3)C2)c1` (centres undefined)?
RanGTP-Impb inh: -0.3; UCH37 inh: 4.1; Vif TR-FRET: -6%; MLL AF4-AF9 inh: -0.6; E coli growth: 0.7; FGF22 binding: inactive; HNF4A DNA FP: 0.6

What do the screens show for `COC(=O)c1ccccc1NC(=O)CN(C1CCCCC1)S(C)(=O)=O`?
RanGTP-Impb inh: 0.3; UCH37 inh: 0.3; Vif TR-FRET: 5%; E coli growth: 0.7; HNF4A DNA FP: 1.7

Results for CC(=O)c1ccccc1N(C(=O)c1ccco1)C(C(=O)NC1CCCC1)c1ccc(C)cc1 (centres undefined) ?
RanGTP-Impb inh: inconclusive; UCH37 inh: 4.3; MLL AF4-AF9 inh: 0.6; E coli growth: 0.71; FGF22 binding: inactive; HNF4A DNA FP: -1.2

How did O=C(CCN1CCN(Cc2ccccc2)CC1)NNC(=O)c1ccc(Cl)c(Cl)c1 do in these assays?
Vif TR-FRET: 2%; MLL AF4-AF9 inh: -5.2; FGF22 binding: inactive; HNF4A DNA FP: 2.1

How did CC(COc1ccccc1)OC(=O)Nc1ccccc1 (centres undefined) do in these assays?
UCH37 inh: 2.8; Vif TR-FRET: -10%; MLL AF4-AF9 inh: -6.4; E coli growth: 0.66; FGF22 binding: inactive; HNF4A DNA FP: 4.7

Results for CCOc1ccc(N(CC(=O)NCCc2ccc(OC)cc2)S(C)(=O)=O)cc1 ?
RanGTP-Impb inh: -0.6; UCH37 inh: -2.8; Vif TR-FRET: inconclusive; MLL AF4-AF9 inh: -4.1; E coli growth: 0.69; FGF22 binding: inactive; HNF4A DNA FP: 0.5

Results for C[C@@H]1CN([C@H](C)CO)S(=O)(=O)c2ccc(Br)cc2O[C@H]1CN(C)S(C)(=O)=O ?
MLL AF4-AF9 inh: -2.4&-0.7&-1.6; FGF22 binding: inactive; HNF4A DNA FP: -0.5

How did Cc1cc(C)c(Cn2c3ccccc3c3cnn(CC(=O)NCc4ccccn4)c(=O)c32)c(C)c1 do in these assays?
RanGTP-Impb inh: 4.8; MLL AF4-AF9 inh: 0.5; FGF22 binding: inactive; HNF4A DNA FP: 2.8

What do the screens show for `COc1cccc(OCc2cc(C(=O)NCC3CCCCC3)no2)c1`?
RanGTP-Impb inh: 1.6; UCH37 inh: 1.4; MLL AF4-AF9 inh: -0.5; E coli growth: 0.72; FGF22 binding: inactive; HNF4A DNA FP: 5.7

What do the screens show for `O[C@@H]1CN(Cc2cccs2)[C@@H](c2ccc(Cl)cc2)C[C@H]1n1cc(-c2ccc(F)cc2)nn1`?
MLL AF4-AF9 inh: 2.0; FGF22 binding: inactive; HNF4A DNA FP: -6.4

How did CCOC(=O)N1CCN(C(=O)c2cc3c(s2)-c2c(C)cccc2OC3)CC1 do in these assays?
RanGTP-Impb inh: 5.8; UCH37 inh: inactive; MLL AF4-AF9 inh: -15; E coli growth: 0.67; FGF22 binding: inactive; HNF4A DNA FP: -3.4

How did Cc1cc(-c2ccccc2)nc(N/N=C/c2ccccc2F)n1 do in these assays?
RanGTP-Impb inh: inconclusive; MLL AF4-AF9 inh: 8.5; FGF22 binding: inactive; HNF4A DNA FP: 1.6

What do the screens show for `CC(C)(C)NC(=O)CN(C(=O)CCC(=O)Nc1nccs1)c1ccccc1F`?
Vif TR-FRET: 2%; MLL AF4-AF9 inh: -17; FGF22 binding: inactive; HNF4A DNA FP: -2.5

How did Cc1cccc(C(C#N)c2nc3ccccc3nc2C(F)(F)F)c1 (centres undefined) do in these assays?
RanGTP-Impb inh: -4.4; UCH37 inh: 1.4; Vif TR-FRET: -14%; E coli growth: 0.74; HNF4A DNA FP: -2.3

Results for COc1cccc(-n2ccnc2SCC(=O)Nc2cc(OC)ccc2OC)c1 ?
RanGTP-Impb inh: 0.6; UCH37 inh: 2.7; Vif TR-FRET: 13%; E coli growth: 0.72; HNF4A DNA FP: 0.0

What do the screens show for `Cc1cc(C(=O)COC(=O)c2ccc[nH]c2=O)c(C)n1C`?
RanGTP-Impb inh: 2.3; UCH37 inh: 7.5; Vif TR-FRET: 18%; MLL AF4-AF9 inh: inconclusive; E coli growth: 0.66; FGF22 binding: inactive; HNF4A DNA FP: -1.7

Results for Cc1ccccc1C(=O)Nc1scc(-c2ccc(Br)cc2)c1C(=O)O ?
RanGTP-Impb inh: inconclusive; UCH37 inh: -15; MLL AF4-AF9 inh: 0.0; E coli growth: 0.69; FGF22 binding: inactive; HNF4A DNA FP: -2.6

Results for CCOc1ccccc1CNCCN1CCOCC1 ?
RanGTP-Impb inh: -5.3; UCH37 inh: -0.1; Vif TR-FRET: -2%; E coli growth: 0.72; HNF4A DNA FP: 2.0

Results for Cc1cc(NC(=O)c2sccc2C)n(-c2nc3ccccc3[nH]2)n1 ?
RanGTP-Impb inh: 2.9; UCH37 inh: 2.2; MLL AF4-AF9 inh: -2.7; E coli growth: 0.66; FGF22 binding: inactive; HNF4A DNA FP: 1.7
